Screening results from PubChem.
gsp antagonist: gsp mutant antagonism. gsp-mutant cells, cAMP HTRF, 30 min; control for the full effect not named in the record. Potency, µM (titrated, usually from 76.9 µM), inactives show at the highest dose activity change, negative = inhibition, most hits filed as inhibitors. 0.4% of 340,000 active. AID 624288; active = falling curve of any shape with a large fitted effect; inconclusive = falling curve, mostly with a smaller effect; inactive = flat or rising curve; cell line not stated here;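 also: intracellular cAMP measured with PDE inhibitor Ro 20-1724 present during compound exposure; potency is read from the fitted curve at half-maximal effect; % is scaled to controls: 0 for no effect and ±100 for the full control effect; nearly all actives have a fitted effect of over 65% in size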
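G418-selected cells were plated in DMEM/10% FBS for 16-24 h at 37C, then treated with compounds plus the PDE inhibitor […] (300 uM solution added) for 30 min at 37C. Intracellular cAMP was measured by HTRF after 30 min lysis at room temperature.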
TRPV1 potentiator: human TRPV1 potentiation | Q8NER1 | TRPV1-expressing cells, Fluo-8 calcium influx, capsaicin EC20 potentiation; host cell line not named in the record; control for the full effect not named in the record | potentiation, % at 8.33 µM | 0.02% of 320,000 active; active means potentiation above 80%; inconclusive means 30% to 80%; inactive means below 30%; also: 0% is about no effect
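Fluo-8 calcium influx in TRPV1-expressing cells, kinetic read (ex 480/em 520 nm). Compound added and read 3 min for agonist activity, followed by capsaicin at EC20 final and 2 min further read for enhancement.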
ClpP mod: qHTS Assay for Activators of ClpP; 1.9% of 340,000 active; ATP-dependent Clp protease proteolytic subunit (Bacillus subtilis (strain 168)), P80244; Potency, µM (titrated, usually from 57.5 µM), for inactives: at the top dose activity change, negative = active; purified B. subtilis ClpP, FRET peptide cleavage, 20 min; active = well fitted falling curve with a large enough effect; inconclusive = small, poorly fitted or top-dose-only effect; inactive = no such curve, though single readings can be large or run the other way; also: potency is read from the fitted curve at half-maximal effect; the source files actives as falling curves though it sought activators and does not explain the sign; nearly all actives have a fitted effect of over 65% in size; many hits overshoot -100%
Target sequence (P80244 whole entry, looked up): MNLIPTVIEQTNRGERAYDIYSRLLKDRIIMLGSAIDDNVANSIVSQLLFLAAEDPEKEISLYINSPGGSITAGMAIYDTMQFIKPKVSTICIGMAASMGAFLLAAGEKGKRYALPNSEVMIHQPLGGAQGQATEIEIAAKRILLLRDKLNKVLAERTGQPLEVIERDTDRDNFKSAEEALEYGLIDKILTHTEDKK
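Buffer: 100 mM Tris/HCl pH8, 100 mM KCl, 0.05% low protease BSA, 2.5% glycerol, 0.01% Tween-20. ClpP 10 microg/mL final; 20 min RT; delta FRET normalized to ADEP and DMSO controls.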
Menin-MLL FL inh: inhibitors of human menin-MLL interaction, wild-type MLL peptide; Fluorescence polarization, fluorescein-MLL peptide displacement from menin; AID 1766; FP activity change, % at 61.4 µM; 290,000 tested, under 10 active; inconclusive = falling polarisation curve, or a change in total fluorescence; inactive = total fluorescence flat and polarisation flat or rising; no compound was filed as active; the % refers to the polarisation; negative = inhibition;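 also: % of control where 0% means no effect; inhibitors lower the polarisation; unlabelled MLL peptide was the positive control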
Sfp inh: blocks B. subtilis Sfp PPTase activity. Potency, µM, for inactives: max response, negative = inhibition, usual class: inhibitors. Biochemical Sfp PPTase activity, qHTS. Q9F4F7. 3.5% of 310,000 active; active = well fitted inhibition curve with a large enough effect; inconclusive = small, poorly fitted or top-dose-only effect, or another doubt; inactive = no such curve, though single readings can be large or run the other way;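 also: the enzyme is Sfp with the accession as filed and its product quenches rhodamine fluorescence; potency is read from the fitted curve at half-maximal effect; 0% = enzyme reaction without inhibitor and -100% = no enzyme wells; top concentration of the series not given in the record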
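Buffer: 50 mM Hepes-Na pH 7.6, 10 mM MgCl2, 0.01% Nonidet P-40, 0.01% BSA. Enzyme 15 nM, pre-exposed to compound 15 min; substrates then added and fluorescence change tracked over 30 min.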
TRPML1 blocker: inhibitors of human TRPML1 channel | TRPML1-inducible cells, Ca2+ dye fluorescence, FDSS; active compounds read low; inhibition of EC80 agonist-evoked calcium signal | 0.02% of 390,000 active | AID 624415 | activity change, negative = inhibition, % (concentration not given with the values); in the data active means activity change below about -50%; inconclusive means about -30% to -50%; inactive means above about -30%;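 also: stimulus is agonist 54-4 at its EC80 concentration; % is scaled to controls: 0 for no effect and ±100 for the full control effect; the text of the record puts the active cut at -80%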
Target sequence (Q9GZU1 whole entry, looked up): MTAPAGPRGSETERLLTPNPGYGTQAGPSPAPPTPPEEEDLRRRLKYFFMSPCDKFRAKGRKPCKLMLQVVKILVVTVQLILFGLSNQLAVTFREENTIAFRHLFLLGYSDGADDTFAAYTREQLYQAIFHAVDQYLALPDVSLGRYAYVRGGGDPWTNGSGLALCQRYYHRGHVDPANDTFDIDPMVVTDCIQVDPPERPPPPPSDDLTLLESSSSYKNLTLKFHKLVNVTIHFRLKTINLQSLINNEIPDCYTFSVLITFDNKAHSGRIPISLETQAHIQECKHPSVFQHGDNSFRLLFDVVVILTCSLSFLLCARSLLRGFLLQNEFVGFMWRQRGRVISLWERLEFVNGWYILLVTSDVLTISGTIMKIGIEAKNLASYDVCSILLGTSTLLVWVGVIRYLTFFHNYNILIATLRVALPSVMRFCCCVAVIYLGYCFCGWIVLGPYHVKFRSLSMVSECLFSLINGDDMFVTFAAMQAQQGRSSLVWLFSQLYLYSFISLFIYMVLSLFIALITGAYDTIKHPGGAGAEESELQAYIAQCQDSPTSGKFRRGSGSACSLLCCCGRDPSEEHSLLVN
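Tet-induced TRPML1-DL cells loaded with Ca8 no-wash calcium dye were read kinetically on FDSS. Compound addition was followed by EC80 agonist 54-4 (4 uM final); inhibition was read over 110 s.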
gsp agonist: agonists of gsp mutant (McCune-Albright syndrome); gsp mutant cells, cAMP HTRF, 30 min; control for the full effect not named in the record; Potency, µM (titrated, usually from 76.9 µM), without a hit: at the top dose activation (cAMP increase), usual class: activators; 0.13% of 340,000 active; active = well fitted activation curve with a large enough effect; inconclusive = small, poorly fitted or top-dose-only effect, or another doubt; inactive = no such curve, though single readings can be large or run the other way; cell line not stated here;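 also: phosphodiesterase inhibitor Ro 20-1724 added with compounds to block cAMP breakdown; potency is read from the fitted curve at half-maximal effect; nearly all actives have a fitted effect of over 60% in size; about a fifth of the inactives were tested at one dose only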
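Cells in DMEM/10% FBS with G418 were pretreated with compounds in DMSO plus […] (300 uM stock) for 30 min at 37C. cAMP was measured by HTRF (cAMP-d2 plus anti-cAMP antibody-K) after 30 min at room temperature.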
* marks the source's active call; other numbers are inactive results; ? = inconclusive; nt = no result given; & = joins results of further samples; [ ] = dose if it differs, or a comment.

compound,gsp antagonist,TRPV1 potentiator,ClpP mod,Menin-MLL FL inh,Sfp inh,TRPML1 blocker,gsp agonist
COc1c(C)cc(C(=O)C2CCCN(C(=O)c3snnc3C)C2)cc1C (stereo not given),0%,-6,nt,-3.4,7%,6,13%[15.4 µM]
COc1cc(C)cc2oc(=O)c(CC(=O)N3CCN(C(=O)C4COc5ccccc5O4)CC3)c(C)c12 (stereo not given),?,6,4.0%,-4.0,14%,15,21%
CCCS(=O)(=O)N1CCCC(C(=O)N2CCN(C(=O)OCC)CC2)C1 (stereo not given),1%,7,-1.3%,-4.6,12%,-7,-13%
O=C(Nc1ccccc1Br)C1CC(=O)N(c2ccc3c4c(cccc24)CC3)C1 (stereo not given),-1%,5,-4.1%,3.9,-14%,-9,-33%[inhibitor]
Cc1cc2cc(CCNC(=O)c3ccc(S(=O)(=O)N4CCOCC4)cc3)c(=O)[nH]c2cc1C,-10%,3,-13%,-1.1,-4%,51,-2%
O=C(COC(=O)c1ccccc1)Nc1ccccc1N1CCOCC1,-3%,-1,0.7%,2.9,13%,-5,-19%
CCCCOc1ccc(C2(C)CC(=O)NC2=O)cc1 (stereo not given),0%,8,-5.0%,0.7,11%,11,17%
Fc1ccc(-c2nnc(CSc3nnc(-c4cccs4)o3)o2)cc1,-7%,-6,-9.7%,0.3,2%,10,?
Cc1ccc(NC(=O)CN2C(=O)CSc3ccc(S(=O)(=O)N4CCCCC4)cc32)cc1,-20%,-4,0.5%,0.6,16%,?,?
CC1=NN2C(=N)/C(=C\c3cc(C)n(-c4cccc(C)c4)c3C)C(=O)N=C2S1,-12%,-4,-2.6%,11,-18%,6,-4%[15.4 µM]
N#C/C(=C\c1ccc(OCc2ccc(Cl)cc2)cc1)C(=O)Nc1cccc(C(=O)O)c1,-29%,4,nt,-4.6,-12%,5,-12%[15.4 µM]
CC(=O)Cc1nsc(NC(=O)c2ccc(-c3ccc(Cl)c(C(F)(F)F)c3)o2)n1,-8%,-14,-6.2%,0.8,11%,19,4%
N#Cc1cccc(NC(=O)CSc2nnc(C3CC3)n2C2CC2)c1,-2%,20,0.3%,nt,nt,6,4%
O=C1NC(=O)c2cc(NC(=O)C3CCCO3)ccc21 (stereo not given),11%,19,28µM*,1.0,17%,5,-14%
CCN(CC)c1ccc(NC(=O)c2nc3nc(C)cc(C(F)F)n3n2)cc1,-28%,-5,-0.2%,5.7,0%,-6,20%
COc1ccc(C(=O)N/N=C(\C)CC(=O)Nc2ccc(N(C)C)cc2)c(OC)c1,-26%,-5,-0.7%,-0.2,3%,16,9%[15.4 µM]
CCc1noc(C)c1C(=O)Nc1nc2ccc(S(C)(=O)=O)cc2s1,-4%,0,?,nt,nt,5,9%[15.4 µM]
CC1=CC(C)(C)n2c(O)c(N=NC(N)=S)c3cc(C)cc1c32,14%,4,-0.9%,2.0,1%,-7,-15%
C=CCn1cc(/C=N/N2C(=O)C3C4C=CC(C4)C3C2=O)c2ccccc21 (stereo not given),-5%,12,-0.4%,-2.2,3%,-23,-30%[inhibitor]
COc1ccc(C(=O)CC(c2ccccc2)C2C(=O)CCCC2=O)cc1 (stereo not given),-2%,-1,-0.8%,4.0,13%,23,3%
CCOC(=O)c1cnc(SC)nc1Sc1cc(Cl)ccc1Cl,-4%[15.4 µM],16,8.8%,0.9,-4%,-15,17%
COc1ccccc1NC(=O)c1coc(=O)c(Br)c1,-25%,-3,nt,-1.3,-8%,7,-1%[15.4 µM]
CCn1nc(C)c(NS(=O)(=O)c2ccc(C)cc2)c1C,-3%,-1,-1.9%,1.9,20%,-11,-2%
O=C(Nc1ccn(Cc2ccc(F)cc2)n1)c1ccncc1,-1%,1,1.0%,4.8,12%,-5,?
CCOc1ccc(/C(C)=N\NC(=O)Cc2ccccc2)cc1,-3%,4,-0.4%,0.0,2%,21,-5%
COc1cccc(Nc2c(F)c(F)c(F)c(F)c2C(=O)O)c1,-11%,9,1.5%,-1.2,3%,3,-19%
O=S(=O)(NCC1CCCN(Cc2ccccc2O)C1)c1cccc2cccnc12 (stereo not given),3%,12,-0.1%,nt,18%,8,9%
O=S(=O)(/N=C(\Sc1ccc(Cl)cc1)c1ccccc1)c1ccccc1,13%,-2,-0.2%,2.1,56µM*,6,-28%
Cc1ccc([C@H]2C[C@H](O)[C@@H](n3cc(-c4ccc(F)cc4)nn3)CN2C(=O)C2CCCCC2)cc1,nt,nt,-1.1%,nt,nt,4,-58%[inhibitor]
Cn1c(=O)n(C)c2cc([N+](=O)[O-])c(N3CCN(C(=O)c4cccc(Cl)c4)CC3)cc21,-17%,-2,0.5%,3.6,9%,32,0%
O=C(Nc1ccc(F)c(Cl)c1)N1CCCCCC1,-2%,-15,-2.4%,4.2,14%,-8,5%
O=C(CNC(=O)c1ccco1)NNC(=O)c1cccc(Cl)c1,12%,nt,1.4%,nt,nt,7,-27%
CC(C)C(=O)Nc1cccc(COc2cccc(CN(Cc3ccccc3)C(=O)OC(C)(C)C)c2)c1,-4%,nt,-1.9%,nt,nt,4,nt
CCC(Sc1nc2cc3c(cc2c(=O)n1Cc1ccco1)OCO3)C(=O)Nc1cccc(OC)c1 (stereo not given),3%,-6,3.4%,-1.2,?,3,3%
Cn1nc(-c2ccccc2)cc1NC(=O)c1ccccc1,0%,1,-2.7%,-0.5,3%,-3,15%[15.4 µM]
CC(=O)Nc1ccc(C(=O)Nc2ccncc2)cc1,8%,?,2.1%,-1.3,9%,-17,0%
Cc1ccc(N2C(=O)C(O)(C(F)(F)F)C3=C2CC(C)(C)CC3=O)cc1 (stereo not given),?,3,1.8%,nt,18%,-7,7%[15.4 µM]
CCCCCCCCCCCCN1[C@@H](CC(=O)OC)c2cc(F)ccc2S1(=O)=O,4%,nt,0.6%&-3.9%,nt,nt,-15,nt
CC1CCc2ccccc2N1C(=O)c1cccs1 (stereo not given),-16%,-3,-0.8%,-0.9,19%,11,8%
COC(=O)c1cc(OC)c(OC)cc1NC(=O)c1cccnc1,nt,2,nt,-3.1,8%,nt,nt
CCOC(=O)c1cc(-c2ccccc2)nn1CC1CC(c2ccc(Cl)cc2)=NO1 (stereo not given),-26%,nt,1.1%,nt,nt,-4,12%
CSc1ccccc1C(=O)NCC1CCCO1 (stereo not given),1%,-3,-0.6%,1.1,5%,-17,15%
CNC(=O)Cn1ncc2c3ccccc3n(C)c2c1=O,5%,1,3.7%,-5.1,6%,-18,-44%[inhibitor]
CCN(CC)c1ccc(/C=N/NC(=O)c2cnccn2)cc1,-7%,-32,nt,4.6,?,-16,-5%[15.4 µM]
O=C(NC1CCCCC1)C(c1ccc2ncccc2c1)N(Cc1ccc2c(c1)OCO2)C(=O)c1ccc2c(c1)OCCO2 (stereo not given),?,4,nt,-1.8,5%,38,2%[15.4 µM]
C=CCOc1ccccc1CNc1cccc(F)c1,-13%,-3,-2.0%,2.5,5%,-12,-23%
Cc1ccc(S(=O)(=O)N(C)/N=C/c2ccc(C(=O)O)cc2)cc1,-2%,-3,-0.2%,-6.0,8%,19,-18%
Cc1cc[n+](CC(=O)c2ccccc2)c2ccccc12,16%,-4,-1.4%,-3.9,18%,5,-7%[15.4 µM]
Cc1cc(/C=C2\NC(=O)NC2=O)c(C)n1-c1cccnc1,-14%,2,nt,0.4,12%,-9,?
CCn1c(=N)n(CC(=O)c2ccc(Br)s2)c2ccccc21,-9%,-2,-1.9%,0.2,?,nt,?
COc1ccc(NC(=O)CCn2c(=S)[nH]c3ccccc3c2=O)cc1,-5%,2,nt,nt,-7%,-3,37%
Cc1cccc(Cn2cc3c(=O)n(Cc4cccc(F)c4)nc-3c3ccccc32)c1,-8%,21,nt,0.8,7%,6,-43%[inhibitor]
O=C(Cc1c(F)cccc1Cl)NNC(=S)Nc1ccc(S(=O)(=O)Nc2ncccn2)cc1,-6%,-3,1.9%,-2.9,11%,10,29%
COc1cc(/C=N/O)cc(Br)c1OC,30%,-9,0.2%,3.5,12%,-16,-26%
O=C(Cc1ccc(Cl)cc1)N/N=C/c1ccncc1,10%,1,nt,-3.7,12%,-12,3%
O=C(/C=C/c1ccc([N+](=O)[O-])cc1)NC1CC2CCC1C2 (stereo not given),0%,-12,nt,-1.9,-8%,-1,-9%[15.4 µM]
O=C(NCCc1ccccc1)NC(Cc1ccccc1)C(=O)O (stereo not given),5%,3,nt,-4.5,19%,15,0%
CSc1oc(-c2ccccc2)nc1S(=O)(=O)c1ccc(C)cc1,14%,-6,-5.8%,2.5,3%,-2,20%
CC(=O)c1cccc(Nc2nc(-c3sc(N)nc3C)cs2)c1,1%,5,-20%,2.0,-7%,-9,-34%[15.4 µM]
COc1ccc(C2SCCN2S(=O)(=O)c2ccc(NC(C)=O)cc2)cc1OC (stereo not given),4%,-9,-2.0%,-6.0,-1%,15,10%[15.4 µM]

Next section.
compound,gsp antagonist,TRPV1 potentiator,ClpP mod,Menin-MLL FL inh,Sfp inh,TRPML1 blocker,gsp agonist
Cn1c(SCc2ccccc2)nnc1C1CCCNC1 (stereo not given),10%,1,0.8%,-1.2,17%,31,?
COc1ccc(C2SCC(=O)N2c2nnc(C34CC5CC(CC(C5)C3)C4)s2)cc1 (stereo not given),0%,2,-19%,2.8,17%,35,18%[15.4 µM]
CCOC(=O)N1CCC(NC(=O)Cn2nc(Cc3ccncc3)c3ccccc3c2=O)CC1,6%,nt,-1.9%,-1.9,20%,27,-33%[inhibitor]
CCc1ccccc1NC(=O)CNC(=O)c1cc(C2CC2)nc2c1cnn2C(C)C,-9%,-9,4.5%,nt,nt,-25,1%
O=c1sc(N2CCN(c3ccccc3F)CC2)nc2ccsc12,-16%,-9,?,3.3,?,-9,-8%
Cc1ccc(S(=O)(=O)N2CCOCC2)cc1C(=O)NCCCn1ccnc1,8%,-2,-0.7%,1.8,-1%,21,-25%[15.4 µM]
CCCN(CCC)C(=O)c1cn(C)c2ccc(S(=O)(=O)N3CCCC3)cc2c1=O,-1%,17,-3.3%,nt,19%,6,?
